NOMO-1 viab – STK33 inhibitor candidate reducing NOMO-1 cell viability; NOMO-1 AML viability, CellTiter-Glo luminescence, 72 h; inhibition, % (test concentration not listed); 37,000 tested, 7.5% active; AID 2330;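 active = most replicates above 80%; inconclusive = exactly half above 80%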;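 also: wells of about 30 µL received 25 nL stock; 0% = median of vehicle wells and 100% = reference inhibitor level; the first replicate is given; inactives centre near 10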
* marks the source's active call; other numbers are inactive results; ? = inconclusive. Not all compounds are listed (hit frequency here may not be typical).

SMILES	NOMO-1 viab
Cc1cccc(NC(=O)CSc2cn(CCNC(=O)c3ccc(F)cc3)c3ccccc23)c1C	66
Cc1nn2c(CN(C(=O)CN3CCOCC3)c3ccccc3)nnc2c2ccccc12	-17
C[C@H](CO)N1C[C@H](C)[C@H](CN(C)S(=O)(=O)c2ccc(F)cc2)Oc2ccc(NS(=O)(=O)c3ccc(Cl)cc3)cc2CC1=O	14
CC(C)(C)NC(=O)[C@H]1C[C@H]2CCCC[C@H]2CN1C(=O)C12CC3CC(CC(C3)C1)C2	17
C[C@@H]1CN([C@@H](C)CO)C(=O)c2cc(N(C)C)ccc2O[C@H]1CN(C)Cc1ccc(C(=O)Nc2ccccc2N)cc1	110*
CCn1cc(CNC(=O)c2cc(-c3cccnc3)nc3ccc(Br)cc23)c(C)n1	34
Cc1cc(C)c(S(=O)(=O)N(C)CC(=O)Nc2cccc([N+](=O)[O-])c2)c(C)c1	5
O=C(O)CCn1cc(C(F)(F)F)ccc1=O	-4
C[C@@H]1CN([C@H](C)CO)C(=O)c2cccc(NC(=O)c3ccncc3)c2O[C@H]1CN(C)C(=O)Nc1ccc2c(c1)OCO2	-3
C[C@@H]1CN([C@@H](C)CO)C(=O)c2cccc(N(C)C)c2O[C@@H]1CN(C)Cc1ccc(C(=O)Nc2ccccc2N)cc1	128*
CC1(C)Cc2nc3sc4c(SCC(=O)NCc5ccco5)ncnc4c3cc2CO1	127*
C[C@H]1CN([C@@H](C)CO)C(=O)Cc2cc(NC(=O)Cn3cnnn3)ccc2O[C@H]1CN(C)Cc1ccc(Cl)c(Cl)c1	18
C[C@@H]1CN([C@@H](C)CO)C(=O)c2cccc(NC(=O)c3cnccn3)c2O[C@@H]1CN(C)S(=O)(=O)c1cn(C)cn1	3
COc1ccc(N(CC(=O)Nc2c(C)cc(C)cc2C)S(C)(=O)=O)cc1Cl	15
COc1ccc(CN(C)C[C@@H]2Oc3c(NC(=O)Nc4ccc(OC)cc4)cccc3C(=O)N([C@@H](C)CO)C[C@@H]2C)cc1	15

Among those listed so far, these contain an aryl thioether with sulfur outside any ring:
SMILES	NOMO-1 viab
Cc1cccc(NC(=O)CSc2cn(CCNC(=O)c3ccc(F)cc3)c3ccccc23)c1C	66
CC1(C)Cc2nc3sc4c(SCC(=O)NCc5ccco5)ncnc4c3cc2CO1	127*

New compounds follow
SMILES	NOMO-1 viab
Cc1noc(C)c1NC(=O)N(C)C[C@@H]1Oc2c(NS(=O)(=O)c3ccccc3)cccc2C(=O)N([C@@H](C)CO)C[C@@H]1C	2
Cc1cc(C(F)F)n2nc(C(=O)Nc3cnn(Cc4ccc(Cl)cc4Cl)c3)nc2n1	-2
CCOC(=O)CC1Sc2ccccc2N=C1SCC(=O)Nc1ccc(Cl)cc1Cl (centres undefined)	19
C[C@H]1CN([C@@H](C)CO)C(=O)c2cc(NC(=O)CCN3CCOCC3)ccc2O[C@@H]1CN(C)C	4
C[C@H]1CN([C@@H](C)CO)C(=O)Cc2cc(NC(=O)C3CC3)ccc2O[C@@H]1CN(C)Cc1ccncc1	-21
CC1CCc2c(sc3ncnc(SCC(=O)Nc4cccc(Cl)c4Cl)c23)C1 (centres undefined)	11
CCOc1c(S(=O)(=O)NCc2ccccn2)ccc(Cl)c1Cl	7
CSc1sc(/C(C)=N\O)c2c1/C(=N\O)CC(C)(C)C2	41
Cc1cc(C)nc(SC(C)C(=O)Nc2cccc(Cl)c2)n1 (centres undefined)	15
COc1ccc(S(=O)(=O)N(C)C[C@H]2Oc3c(NC(=O)Nc4cccc5ccccc45)cccc3C(=O)N([C@H](C)CO)C[C@@H]2C)cc1	16
COc1cccc(NC(=O)c2ccc(OC(=S)N3CCC(C)CC3)cc2)c1	56
C[C@@H]1CCCCO[C@H](CN(C)CC2CCCCC2)[C@@H](C)CN([C@H](C)CO)C(=O)c2cc(NC(=O)CCCN(C)C)ccc2O1	-27
Cc1noc(C)c1NC(=O)Nc1cccc2c1O[C@@H](CN(C)Cc1ccccc1)[C@@H](C)CN([C@@H](C)CO)C2=O	11
C[C@H]1CN([C@@H](C)CO)C(=O)c2cc(NC(=O)Nc3cccc4ccccc34)ccc2O[C@H]1CN(C)C	-16
C[C@@H]1CN([C@@H](C)CO)C(=O)c2cc(NC(=O)Cc3ccccc3)ccc2O[C@H]1CN(C)Cc1ccccc1	11
C[C@@H]1CN([C@@H](C)CO)C(=O)Cc2cc(NS(=O)(=O)c3cn(C)cn3)ccc2O[C@@H]1CN(C)C(=O)Nc1ccccc1	10
C[C@H]1CN([C@@H](C)CO)C(=O)c2cc(NC(=O)C3CC3)ccc2O[C@@H]1CN(C)S(C)(=O)=O	-16
CC1(C)CCc2cc(-c3ccn(S(=O)(=O)c4ccc(Cl)cc4)n3)ccc2O1	68
C[C@@H]1CCCCO[C@@H](CN(C)Cc2ccc(C(=O)O)cc2)[C@@H](C)CN([C@H](C)CO)C(=O)c2cc(NC(=O)Nc3cccc4ccccc34)ccc2O1	4
Cn1c2ccccc2c2nnc(Sc3ccc4nsnc4c3[N+](=O)[O-])nc21	?
Cc1cc(C)c(C)c(S(=O)(=O)NCc2cccnc2)c1C	32
O=C(Oc1ccc2cc(OC(=O)c3ccccc3)ccc2c1)c1ccccc1	-3
COc1ccc(Cl)cc1NC(=O)CN(c1ccc(I)cc1)S(C)(=O)=O	28
Cc1cc(C(=O)Nc2cccc3c2O[C@@H](CN(C)Cc2ccc(C(=O)O)cc2)[C@H](C)CN([C@H](C)CO)C3=O)n(C)n1	-4
C[C@H](CO)N1C[C@H](C)[C@@H](CN(C)C(=O)Nc2ccc(F)cc2)Oc2c(NC(=O)Nc3ccc(C(F)(F)F)cc3)cccc2C1=O	42
C[C@H]1CN([C@@H](C)CO)C(=O)Cc2cc(NC(=O)CCC(F)(F)F)ccc2O[C@@H]1CN(C)Cc1ccncc1	-1
C[C@H]1CN([C@@H](C)CO)C(=O)c2cccc(NC(=O)c3ccncc3)c2O[C@@H]1CN(C)C(=O)Nc1ccc(F)cc1	-2
N#Cc1ccccc1CSc1nnc(-c2ccc([N+](=O)[O-])cc2)n1-c1ccccc1	18
O=C(CCCn1cc([N+](=O)[O-])cn1)Nc1cc(F)ccc1F	-8
C[C@@H]1CN([C@H](C)CO)C(=O)c2cccc(N(C)C)c2O[C@H]1CN(C)C(=O)Nc1ccc2c(c1)OCO2	5

Looked up above:
C[C@@H]1CN([C@@H](C)CO)C(=O)Cc2cc(NS(=O)(=O)c3cn(C)cn3)ccc2O[C@@H]1CN(C)C(=O)Nc1ccccc1 | NOMO-1 viab = 10
C[C@H]1CN([C@@H](C)CO)C(=O)c2cccc(NC(=O)c3ccncc3)c2O[C@@H]1CN(C)C(=O)Nc1ccc(F)cc1 | NOMO-1 viab = -2
N#Cc1ccccc1CSc1nnc(-c2ccc([N+](=O)[O-])cc2)n1-c1ccccc1 | NOMO-1 viab = 18

Further entries
SMILES	NOMO-1 viab
O=C(COc1ccccc1)NC(=S)Nc1cc(-c2nc3ccccc3o2)ccc1Cl	2
CN(CC(=O)Nc1ccc(C(N)=O)cc1)S(=O)(=O)c1ccc2ccccc2c1	20
C[C@@H]1CN([C@H](C)CO)C(=O)c2cc(NC(=O)Cc3ccccc3)ccc2O[C@@H]1CN(C)S(=O)(=O)c1cccs1	3
Cc1ccc(Cn2nc(C)c(NC(=O)c3nc4ncccn4n3)c2C)cc1	19
COc1ccc(C)cc1NC(=O)NCCCN1CCN(c2ccccc2C)CC1	39
Cc1noc(C)c1S(=O)(=O)Nc1ccc2c(c1)C(=O)N([C@H](C)CO)C[C@H](C)[C@@H](CN(C)Cc1ccc3c(c1)OCO3)O2	8
COC(=O)CSc1nc(NC(C)C)nc(N2CCOCC2)n1	43
C[C@@H]1CN([C@@H](C)CO)C(=O)c2cccc(NC(=O)c3ccc(-c4nccs4)cc3)c2O[C@H]1CN(C)C(=O)Nc1ccc(F)cc1	23
C[C@H](CO)N1C[C@H](C)[C@H](CN(C)Cc2ccc(Cl)c(Cl)c2)Oc2ccc(N(C)C)cc2CC1=O	29
O=C(CSc1nnc2c(n1)[nH]c1ccccc12)Nc1cccc(C(F)(F)F)c1	112*
C[C@H](CO)N1C[C@H](C)[C@H](CN(C)Cc2ccncc2)Oc2c(NS(C)(=O)=O)cccc2C1=O	-12
Cc1cc(C)c(NC(=O)CN(C)S(=O)(=O)c2ccc(F)cc2)c(C)c1	-4
CC(C)NC(=O)Nc1ccc2c(c1)C(=O)N([C@H](C)CO)C[C@@H](C)[C@@H](CN(C)C)O2	-26
C[C@@H]1CN([C@H](C)CO)C(=O)Cc2cc(NC(=O)CCC(F)(F)F)ccc2O[C@H]1CN(C)C(=O)NC1CCCCC1	22
Cc1cc(-c2ccccc2)nc(SCC(=O)Nc2ccc(OC(F)F)cc2)n1	20
C[C@H]1CN([C@@H](C)CO)C(=O)c2cc(NS(=O)(=O)c3cn(C)cn3)ccc2O[C@@H]1CN(C)Cc1ccc(C(=O)Nc2ccccc2N)cc1	22
COc1ccc(S(=O)(=O)N(C)C[C@H]2Oc3ccc(NC(=O)Cc4cn(C)c5ccccc45)cc3CC(=O)N([C@H](C)CO)C[C@H]2C)cc1	16
COc1ccc(CN(C)C[C@@H]2Oc3ccc(NC(=O)c4ccncc4)cc3CC(=O)N([C@H](C)CO)C[C@H]2C)cc1	13
Cc1noc(C)c1NC(=O)Nc1ccc2c(c1)C(=O)N([C@H](C)CO)C[C@H](C)[C@@H](CN(C)Cc1ccc(Cl)c(Cl)c1)OCCCC[C@@H](C)O2	51
C[C@@H]1CN([C@H](C)CO)C(=O)c2cc(NC(=O)CCC(F)(F)F)ccc2O[C@@H]1CN(C)Cc1ccc(-c2ccccc2)cc1	24
Cc1noc(C)c1NC(=O)Nc1ccc2c(c1)C(=O)N([C@H](C)CO)C[C@@H](C)[C@@H](CN(C)Cc1ccc(C(=O)O)cc1)O2	-6
COC(=O)C[C@H]1C(C)(C)[C@H](OC(C)=O)[C@]2(O)CC3=C4CC(=O)O[C@@H](c5ccoc5)[C@]4(C)CCC3[C@@]1(C)C2=O (some centres undefined)	20
COc1cccc2cc(C(=O)C3C(=O)C(=O)N(c4cc(C)on4)C3c3ccccc3)oc12 (centres undefined)	-4
C[C@H]1CN([C@@H](C)CO)C(=O)Cc2cc(NC(=O)C3CC3)ccc2O[C@H]1CN(C)Cc1ccc(Oc2ccccc2)cc1	-5
C[C@H](CO)N1C[C@H](C)[C@H](CN(C)Cc2ccccc2)Oc2ccc(NC(=O)Nc3ccc(F)cc3)cc2CC1=O	28
C/C(=C\CC[C@@H](C)[C@H]1CC(O)[C@@]2(C)C3CC[C@H]4C(C)(C)[C@@H](O[C@@H]5OC(COC6OC(CO)C(O)C(O)C6O)C(O)C(O)C5O)CC[C@@]45C[C@@]35CC(O)[C@]12C)C(=O)OC1OC(CO)C(O)C1O (some centres undefined)	28
C[C@H]1CN([C@@H](C)CO)C(=O)c2cc(NS(C)(=O)=O)ccc2O[C@H]1CN(C)Cc1ccc(C(=O)Nc2ccccc2N)cc1	30
CS(=O)(=O)N(CC(=O)Nc1ccc(Br)cc1F)c1ccccc1Cl	29
C[C@@H]1CN([C@@H](C)CO)C(=O)Cc2cc(NS(=O)(=O)c3ccc(F)cc3)ccc2O[C@@H]1CN(C)Cc1ccccc1	54
C[C@@H]1CN([C@H](C)CO)C(=O)c2cc(NC(=O)Cc3cn(C)c4ccccc34)ccc2O[C@@H]1CN(C)Cc1ccccc1	45

5 of these compounds in a different format:
| SMILES | NOMO-1 viab |
| --- | --- |
| C[C@H]1CN([C@@H](C)CO)C(=O)Cc2cc(NC(=O)C3CC3)ccc2O[C@@H]1CN(C)Cc1ccncc1 | -21 |
| CC1CCc2c(sc3ncnc(SCC(=O)Nc4cccc(Cl)c4Cl)c23)C1 (centres undefined) | 11 |
| CCOc1c(S(=O)(=O)NCc2ccccn2)ccc(Cl)c1Cl | 7 |
| CSc1sc(/C(C)=N\O)c2c1/C(=N\O)CC(C)(C)C2 | 41 |
| Cc1cc(C)nc(SC(C)C(=O)Nc2cccc(Cl)c2)n1 (centres undefined) | 15 |

Other results follow.
SMILES	NOMO-1 viab
CCOC(=O)c1c(NC(=O)CSc2nnc(C)s2)sc2c1CCCCC2	12
Cc1cccc(N2C(=O)CC(SCC(=O)Nc3ccccc3)C2=O)c1 (centres undefined)	-19
C[C@H](CO)N1C[C@H](C)[C@H](CN(C)S(=O)(=O)c2ccc(Cl)cc2)Oc2c(NS(=O)(=O)c3ccc(Cl)cc3)cccc2C1=O	64
O=C(NCCOc1ccccc1-c1ccccc1)c1ccco1	34
Cc1cc(C(=O)Nc2cccc3c2O[C@H](CN(C)Cc2ccc(Cl)c(Cl)c2)[C@@H](C)CN([C@@H](C)CO)C3=O)n(C)n1	51
C[C@H](CO)N1C[C@H](C)[C@@H](CN(C)Cc2ccncc2)Oc2c(NC(=O)c3cnccn3)cccc2C1=O	7
C[C@H](CO)N1C[C@H](C)[C@H](CN(C)C(=O)NC2CCCCC2)Oc2ccc(NC(=O)Nc3ccc(C(F)(F)F)cc3)cc2C1=O	63
COc1ccc(Cl)cc1NC(=O)CSc1nnc(-c2ccc(Br)cc2)o1	3
COc1ccc(N(C(C)C(=O)Nc2ccc(Br)cc2)S(C)(=O)=O)cc1 (centres undefined)	-20
Cc1ccc(S(=O)(=O)N(C)C[C@H]2Oc3c(NS(=O)(=O)c4cccs4)cccc3C(=O)N([C@H](C)CO)C[C@H]2C)cc1	14
C[C@@H]1CN([C@H](C)CO)C(=O)Cc2cc(NC(=O)NC3CCCCC3)ccc2O[C@H]1CN(C)Cc1ccc(Oc2ccccc2)cc1	70
Cc1cc(CNC(=S)Nc2ccc(S(N)(=O)=O)cc2)nn1C	5
COc1ccc(NC(=O)CNC(=O)c2ccccc2)cc1Cl	14
COc1cc(NC(=O)Cn2nc(C(F)(F)F)c(Cl)c2C)cc(OC)c1OC	23
C[C@H](CO)N1C[C@H](C)[C@@H](CN(C)CC2CC2)Oc2ccc(NS(=O)(=O)c3cn(C)cn3)cc2C1=O	5
